POLI inh: qHTS for Inhibitors of Polymerase Iota; DNA polymerase iota (Homo sapiens), Q9UNA4; Pol iota fluorescent replication assay, 10 min; Potency, µM (top dose mostly 115 µM), for inactives: at the top dose activity, negative = inhibition, most hits filed as inhibitors; 1% of 390,000 active; AID 588590, 2011
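Fluorescent replication assay read twice, at 0 min and 10 min after adding 50 nM (final) substrate. Enzyme (10 nM) and compounds were first incubated 15 min at room temperature; enzyme-free buffer wells were negative controls.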
BLM helicase inh: qHTS Assay for Inhibitors of Bloom's syndrome helicase (BLM); 0.2% of 350,000 active; AID 2528, 2010; RecQ-like DNA helicase BLM (Homo sapiens), P54132; Potency, µM (doses to about 56.1 µM), for inactives: at the highest dose activity change, negative = inhibition, actives largely listed as inhibitors; recombinant BLM DNA unwinding, fluorescence dequenching;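 note: plate controls were vehicle for no effect and no enzyme for full effect; nearly all actives have a fitted effect of over 35% in size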
POLB inh: qHTS Assay for Inhibitors of DNA Polymerase Beta; Pol beta primer extension/strand displacement, fluorescence kinetic; Potency, µM (top dose mostly 114 µM), inactives show at the top dose activity change, negative = inhibition, actives largely listed as inhibitors; AID 485314, 2010; P06746; 1.3% of 340,000 active; note: % is set by controls: 0 for no effect and ±100 for the full control effect
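Pol beta (10 nM) was preincubated with compound for 15 min at room temperature. The reaction was then started with 50 nM substrate and read immediately and after a further 10 min at room temperature.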
Apoferritin bind: qHTS Assay for Identification of Novel General Anesthetics; apoferritin/1-aminoanthracene competitive binding, fluorescence; Potency, µM (titrated, usually from 77.5 µM), for the others: at the top dose activity change, negative = displacement, hits mostly inhibitors; 0.074% of 350,000 active; Ferritin light chain (Equus caballus), P02791; note: % is set by controls: 0 for no effect and ±100 for the full control effect; nearly all actives have a fitted effect of over 20% in size
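Steps: apoferritin (10 uM) was premixed with half-saturated 1-AMA in PBS, compounds were pin-transferred, plates stood 10 min at room temperature, fluorescence was read at 380/535 nm, and curves were fitted with a Hill equation.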
APEX1 inh: qHTS Assay for Inhibitors of the Human Apurinic/apyrimidinic Endonuclease 1 (APE1) | DNA repair nuclease/redox regulator APEX1 (Homo sapiens), P27695 | Potency, µM (doses to about 65.8 µM), inactives show at the highest dose activity change, negative = inhibition, most hits filed as inhibitors | recombinant APE1, TAMRA/BHQ-2 abasic DNA cleavage fluorescence | 0.35% of 350,000 active;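 note: plate controls were vehicle for no effect and reference inhibitor for full effect; nearly all actives have a fitted effect of over 55% in size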
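Substrate: short duplex with […] THF abasic site, 5'-TAMRA and 3'-BHQ-2, 50 nM final. APE1 at 0.75 nM, preincubated 15 min RT with compound. Fluorescence increase from first to third read measured activity.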
Pol kappa inh: qHTS for Inhibitors of Polymerase Kappa | purified Pol kappa, fluorescent DNA synthesis assay, 10 min | Potency, µM (doses to about 107 µM), without a hit: top-dose activity, negative = inhibition, hits mostly inhibitors | 0.53% of 400,000 active; note: % is set by controls: 0 for no effect and ±100 for the full control effect
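Kinetic fluorescence readout at 0 and 10 min followed reaction start with substrate at 50 nM final. Beforehand, enzyme (10 nM Pol kappa) stood 15 min with compound at room temperature; buffer-only wells were negative controls.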
G9a block: qHTS Assay for Inhibitors of Histone Lysine Methyltransferase G9a; G9a H3K9 monomethylation, AlphaScreen, 2 h; Histone-lysine N-methyltransferase EHMT2 (Homo sapiens), Q96KQ7; 8.8% of 350,000 active; AID 504332, 2011; Potency, µM (doses to about 102 µM), for the others: at the highest dose activity, negative = inhibition, most hits filed as inhibitors; note: % is set by controls: 0 for no effect and ±100 for the full control effect; nearly all actives have a fitted effect of over 75% in size
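Step 1: enzyme (final 20 nM) with compound, 15 min RT. Step 2: substrate peptide 500 nM and SAM 20 uM, 2 h RT. Step 3: anti-H3K9me1 antibody and AlphaScreen beads, 10 min, then plate read.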
Pol eta inh: qHTS for Inhibitors of Polymerase Eta; recombinant Pol eta, fluorescent DNA replication assay; DNA polymerase eta (Homo sapiens), Q9Y253; Potency, µM (doses to about 114 µM), for the others: top-dose activity change, negative = inhibition, actives largely listed as inhibitors; 1.2% of 390,000 active; note: % is set by controls: 0 for no effect and ±100 for the full control effect
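Pol eta (10 nM) was preincubated with compounds for 15 min at room temperature, after which fluorescent replication substrate (50 nM final) was added to start the reaction. Fluorescence was read kinetically at 0 and 10 min.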
* marks the source's active call; other numbers are inactive results; ? = inconclusive; · = no result given; [ ] = dose if it differs, or a comment. Calls come from the whole dose curve; as a rule, active = well fitted curve in the direction sought with a large enough effect; inconclusive = small, poorly fitted or top-dose-only effect, or another doubt; inactive = no such curve, though single readings can be large; an effect the other way counts as inactive or inconclusive. Potency is the fitted concentration of half-maximal effect. An excerpt, so the mix of outcomes need not match the whole.

SMILES	POLI inh	BLM helicase inh	POLB inh	Apoferritin bind	APEX1 inh	Pol kappa inh	G9a block	Pol eta inh
O=C(CNC1CCCCCC1)Nc1ccccc1N1CCOCC1	12.0%	0.2%	3.0%	-10.3%	2.5%	2.8%	8.91µM*	-6.1%
COc1ccc(CN2CCN(C(=O)CC(C)C)CC2)c2ccccc12	-4.8%	-3.0%	29.6%	-7.9%	9.7%	5.9%	?	-10.6%
CCOc1ccc2c(c1)c(=O)c(C(=O)c1ccc(CC)cc1)cn2CC(=O)Nc1cccc(Cl)c1	-2.2%	-15.0%	7.5%	52.0%[activator]	·	-15.8%	-25.4%[59 µM]	-3.5%
O=C(c1ccccc1F)N1CCC(N2CCCCCC2)CC1	8.7%	-0.2%	19.5%	-16.9%	-1.0%	6.7%	7.08µM*	-8.2%
COc1ccc(N=C2S/C(=C\c3ccc(C)o3)C(=O)N2CC(C)C)cc1	-5.3%	-12.6%	4.7%	-21.8%	6.8%	-4.5%	8.91µM*	-19.8%

Full records, looked up by structure. Screens in order: POLI inh | BLM helicase inh | POLB inh | Apoferritin bind | APEX1 inh | Pol kappa inh | G9a block | Pol eta inh
Results for `O=C(c1ccccc1F)N1CCC(N2CCCCCC2)CC1` : 8.7% | -0.2% | 19.5% | -16.9% | -1.0% | 6.7% | 7.08µM* | -8.2%
Results for `O=C(CNC1CCCCCC1)Nc1ccccc1N1CCOCC1` : 12.0% | 0.2% | 3.0% | -10.3% | 2.5% | 2.8% | 8.91µM* | -6.1%

Looked up above:
Reading of CCOc1ccc2c(c1)c(=O)c(C(=O)c1ccc(CC)cc1)cn2CC(=O)Nc1cccc(Cl)c1 under BLM helicase inh: -15.0%
Reading of COc1ccc(CN2CCN(C(=O)CC(C)C)CC2)c2ccccc12 under POLB inh: 29.6%
